Bioassay records: PubChem, Fisher Drug Discovery Resource Center
NPYLR7 agonist: agonists of mosquito NPYLR7 receptor, primary screen, cell-based, Aedes aegypti, calcium fluorescence, mosquito biting behavior; Aedes aegypti neuropeptide Y-like receptor 7 (NPYLR7); HEK293T NPYLR7/Galpha15, GCaMP6s calcium fluorescence; activation, % at 10 µM; 0.15% of 270,000 active; AID 1259423, 2018; in the data active means activation above about 40%;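 further: 0% = vehicle and 100% = reference agonist at the receptor; some compounds past the cut are filed as inactive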
NPYLR7 agonist max-min: second read-out of NPYLR7 agonist, no call of its own (marks repeat the call); activation, %; measured here: Max-Min RFU normalised activation; some inactives read as strong as hits;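 span of the calcium signal over five minutes; 0% = vehicle and 100% = native peptide agonist; compound fluorescence can raise it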
Numbers without * were called inactive; & = joins results of further samples. These rows are one share of the data; the hit share may differ from the screen's.

SMILES	NPYLR7 agonist	NPYLR7 agonist max-min
Cn1ccc(NC(=O)c2ccc(S(=O)(=O)C(F)F)cc2)n1	2	4
CC(C)c1nnc2n1CCN(C(=O)c1ccccc1C1CCNC1)CC2 (stereo not given)	3	2
O=C(c1ccc(F)cc1)N(Cc1cccc(OS(=O)(=O)c2cccc(C(F)(F)F)c2)c1)Cc1ccco1	-11	-14
CC1(Cc2ccc(C(F)(F)F)nc2)C(=O)Nc2ccc(Cl)cc21 (stereo not given)	0	4
N#Cc1cccc(-c2nnc3ccc(-c4ccc(N5CCOCC5)cc4)cn23)c1	9	-3
FC(F)(F)Oc1ccc(-c2cccc(Nc3ccc(Oc4ccccc4)cc3)n2)cc1	-14	-18
Cc1cc(C)c(N(Cc2ccccc2)S(=O)(=O)c2ccc(OCCNC(=O)c3cc4ccccc4o3)cc2)c(C(=O)NO)c1	-11	-13
CC(C)(C)NC(=O)NC(=O)CSc1nnc(C2CC2)n1C1CC1	14	15
COc1cc(F)ccc1-c1c(-c2ccccc2)ncn1C[C@H]1CCCN1	19	8
O=C(COCc1ccccc1)NCCNc1nc(-c2ccccc2)nc2ccccc12	8	19
Cc1nc(CNC(=O)N2CCCc3c(F)cc(F)cc32)cs1	1	-1
CCc1nccn1CCC(=O)N[C@@H]1CC[C@@H](N)C1	-3	-8
COCCN(Cc1ccncc1)C(=O)CC12CC3CC(CC(C3)C1)C2	-2	-6
CCN(CC)S(=O)(=O)c1ccc(=O)n(CC(=O)Nc2cc(Cl)cc(Cl)c2)c1	0	-1
CNC(=O)c1ccc(C2CCCN2Cc2cc3cc(OC)ccc3[nH]c2=O)s1 (stereo not given)	5	4
Cc1noc(C)c1CN(C)Cc1cccn1-c1ccc(Cl)cn1	7	4
CC(SCc1cccc(C(N)=O)c1)c1nc(C2CC2)no1 (stereo not given)	1	2
CC(C)(C)OC(=O)N[C@@H](CCC(N)=O)C(=O)N1CCCc2c1[nH]c1ccccc21	10	7
Fc1ccc(N2CCCN(Cc3nc(-c4ccccn4)no3)CC2)cc1	20	9
COc1ccc2c(c1)CC(C(=O)N1CCC(CCC(=O)Nc3ccccc3)CC1)CO2 (stereo not given)	2	-3
CCOC(=O)c1cc(-c2cccc(NC(=O)c3cccnc3Cl)c2)n(-c2ccccn2)n1	26	11
O=C(NCC1COCCO1)c1nn(-c2ccc(Cl)cc2)c2c1CCCCC2 (stereo not given)	7	6
CN(C)CCCN1C(=O)C(O)=C(C(=O)c2ccco2)C1c1cccc([N+](=O)[O-])c1 (stereo not given)	3	2
C=CCN(C)c1nc(-c2cccnc2)nc2c1CNC2	18	14
Cc1cccc(NC(=O)CSc2nc3c([nH]c4ccccc43)c(=O)n2C)c1	11	16

The final six entries of the part above are carried over, then new ones follow:
SMILES	NPYLR7 agonist	NPYLR7 agonist max-min
COc1ccc2c(c1)CC(C(=O)N1CCC(CCC(=O)Nc3ccccc3)CC1)CO2 (stereo not given)	2	-3
CCOC(=O)c1cc(-c2cccc(NC(=O)c3cccnc3Cl)c2)n(-c2ccccn2)n1	26	11
O=C(NCC1COCCO1)c1nn(-c2ccc(Cl)cc2)c2c1CCCCC2 (stereo not given)	7	6
CN(C)CCCN1C(=O)C(O)=C(C(=O)c2ccco2)C1c1cccc([N+](=O)[O-])c1 (stereo not given)	3	2
C=CCN(C)c1nc(-c2cccnc2)nc2c1CNC2	18	14
Cc1cccc(NC(=O)CSc2nc3c([nH]c4ccccc43)c(=O)n2C)c1	11	16
O=C1CC(C(=O)N(Cc2ccccc2F)C2CC2)CCN1 (stereo not given)	0	0
CNC(=S)N1N=C(c2cccc(C)c2)CC1c1ccc(OC)c(OC)c1 (stereo not given)	4	2
O=C(NCC(=O)N1CCCc2ccccc21)c1cc2c(s1)CCC2	1	-2
CCC(C)N(Cc1ccc(OS(C)(=O)=O)cc1)C(=O)c1ccc(C(C)(C)C)cc1 (stereo not given)	-4	-1
CC(C)(C)c1cc(NC(=O)c2ccc(F)c(F)c2)n(-c2ccccc2Cl)n1	34	35
COc1ccc(-n2nnnc2SCc2cc3c(cc2Br)OCO3)cc1	8	7
O=C(Cc1ccc(F)cc1)NNS(=O)(=O)c1cccc(F)c1	2	5
Cc1nc(C(F)(F)F)ccc1C(=O)N1CCC1(C)C(=O)NS(=O)(=O)c1ccc2ccccc2c1 (stereo not given)	3	1
COc1ccc(NC(=O)c2nnn(CC(=O)Nc3ccc(C)cc3C)c2N)cc1OC	-8	-11
CN(Cc1nccs1)C(=O)CC(c1ccccc1)c1ccc(Cl)cc1 (stereo not given)	4	2
O=C(c1cc2c(nc1Cl)CCC2)N1CCc2ccccc2C1	-12	-22
Cc1ccnc(C(NC(=O)c2ccccc2-n2cncn2)C2CC2)c1 (stereo not given)	21	18
O=C(Nc1nc(CN2CCCCC2)cs1)NC12CC3CC(CC(C3)C1)C2	-1	1
COc1ccccc1C(=O)N(Cc1nc2cc(C)ccc2o1)Cc1ccccc1Cl	3	0
CCCCn1c(C2CC(=O)N(c3ccccc3Cl)C2)nc2ccccc21 (stereo not given)	3	4
C#CCN(CC=C)C(=O)CSc1nnc(C)s1	3	6
CCSc1ccc2nnc(-c3cccs3)n2n1	-6	-6
N#Cc1ncn(CCC(=O)Nc2ccc(F)c(F)c2)n1	1	-1
COCc1cccc(C(=O)OCC2CCCOC2)c1 (stereo not given)	3	-1
Cc1ccc(-n2nc(-c3ccccc3)cc2C(=O)NCCc2ccc(Cl)cc2Cl)cc1	-3	4
Cc1ccc(/C=C/c2nc(=S)n(CN(C)Cc3c(C)nn(C4CCS(=O)(=O)C4)c3C)[nH]2)o1 (stereo not given)	3	7
CC(C)c1ccc(OCC(=O)NNC(=O)C2COc3ccccc3O2)cc1 (stereo not given)	0	-2
CC(C)C(NC(=O)c1ccco1)C(=O)Nc1nc2cc3c(cc2s1)OCCO3 (stereo not given)	5	-1
OCCn1c(-c2ccc(-c3ccn[nH]3)cc2)nc2ccccc21	-9	-20
COc1ccc(OCC(O)CN2CCC(=O)N(CC3CC3)Cc3cc(F)ccc32)cc1 (stereo not given)	-3	7
SMILES	NPYLR7 agonist	NPYLR7 agonist max-min
Fc1ccc(N2CCCN(Cc3ncc[nH]3)CC2)cc1	6	3
O=C(CN(CC1CCCO1)C(=O)c1ccc(-c2ccccc2)cc1)N(Cc1ccc(F)cc1)Cc1ccco1 (stereo not given)	2	11
CCc1nc2ccc(C(=O)NCCOc3ccc(OC)cc3)cn2c1N(C)Cc1ccncc1	-3	-10
O=C(NC1CCCCC1)c1cc2c([nH]c1=O)CCCC2	4	2
CC(=O)N1CCN(Cc2cn(-c3cccc(C)c3)nc2-c2cccc(F)c2)CC1	0	-4
CC(C)N1Cc2[nH]cnc2C[C@H]1C(=O)NC1CCCCC1	-9	-16
CN(C)C(=S)SCC(=O)Nc1ccc(F)cc1	1	-7
Cc1cccc(C)c1NC(=O)Nc1nnc([C@@H]2C[C@H](O)[C@@H](CO)O2)s1	-3	-5
CC(C)(C)C(=O)NC1C2CC3CC(C2)CC1C3 (stereo not given)	0	-2
O=C(CSc1ncnc2c1nnn2Cc1ccc(F)cc1)N1CCc2ccccc21	18	22
Cc1ccc(-n2nc(-c3ccc(Cl)cc3)cc2NC(=O)c2ccc(F)cc2)cc1	15	1
Cc1cc(C)c(NC(=O)CSc2ccc(-c3ccncc3)nn2)c(C)c1	6	-2
COc1ccccc1C(=O)NCC12CC3CC(CC(C3)C1)C2	12	4
CC(C)C1CN(C(=O)Cc2cccc(O)c2)CCC(=O)N1CC1CC1 (stereo not given)	6	3
O=C(Nc1nnc(Cc2ccc(F)cc2)s1)c1cccs1	-13	-22
COC(=O)C(=O)N1CCC(Cc2ccc3c(c2)OCO3)CC1	5	5
COc1nc2cn(C3CCCC3)c(O)c2cc1CNC(=O)c1ccnn1C	4	-5
O[C@@H]1CN(Cc2c(Cl)nc3sccn23)CC[C@H]1c1ccc(F)cc1	7	5
Cn1cc(NC(=O)NCCCc2ccccc2)c2ccccc21	1	-5
CC1CCCN(C2=C(NS(=O)(=O)c3ccc(Cl)cc3)C(=O)c3ccccc3C2=O)C1 (stereo not given)	-3	-6
CCC(COC)NC(=O)c1cc(N(C)C2CCCCC2)nc2ccccc12 (stereo not given)	5	1
CCCc1cc(C(=O)N2CCC(n3nccc3NC(=O)c3ccc(OC)cc3)CC2)no1	-2	-5
CCOc1ccc2oc(C)c(C(=O)N3CC[C@H]4CC[C@@H](C3)N4)c2c1	18	13
CCN(CC)c1ccc(CN(CC2CCCO2)C(=O)NC(C)(C)C)c(OS(C)(=O)=O)c1 (stereo not given)	-13	-13
CCOc1ccc(-n2c(SCC(=O)Nc3cc(C)on3)nc3c(c2=O)SCC3)cc1	-3	-4

Gathered by group, the compounds so far containing a cyano group (2)
SMILES	NPYLR7 agonist	NPYLR7 agonist max-min
N#Cc1cccc(-c2nnc3ccc(-c4ccc(N5CCOCC5)cc4)cn23)c1	9	-3
N#Cc1ncn(CCC(=O)Nc2ccc(F)c(F)c2)n1	1	-1

The main list resumes; the 2 compounds before the break are reprinted first.
SMILES	NPYLR7 agonist	NPYLR7 agonist max-min
CCN(CC)c1ccc(CN(CC2CCCO2)C(=O)NC(C)(C)C)c(OS(C)(=O)=O)c1 (stereo not given)	-13	-13
CCOc1ccc(-n2c(SCC(=O)Nc3cc(C)on3)nc3c(c2=O)SCC3)cc1	-3	-4
Cc1nc(C)c(-c2cc(C)c3c(C)nc(C)nc3n2)c(N)n1	5	0
O=C(NCCc1ccccc1)Nc1nnc([C@H]2C[C@H](O)[C@@H](CO)O2)s1	9	4
Cc1cccc(-n2nc(C(C)(C)C)cc2NC(=O)CN(CC(C)C)C(=O)Nc2ccc(F)c(F)c2)c1	-9	-6
O=C(NCc1cc(-c2cc3ccccc3o2)on1)C12CC3CC(CC(C3)C1)C2	6	4
Cc1cccc2c1NC(c1ccccc1Br)NC2=O (stereo not given)	19	13
CCOC(=O)c1ccc(NC(=O)CSc2ccc3nc(-c4ccc(OC)cc4)cn3n2)cc1	-5	-7
CN1CCN(c2ncccc2CNC(=O)C2CC(=O)N(C3CC3)C2)CC1 (stereo not given)	4	0
Cc1nc(CCN)cc(N(C)Cc2nc(-c3cccnc3)no2)n1	2	3
C=CCC1(OC)CCN(C(=O)c2cc(CN3CCC(O)CC3)on2)CC1	-3	-9
CC(=O)NCCCC(=O)N1CCC(=O)N(CC2CC2)C(C(C)C)C1 (stereo not given)	0	-10
COc1ccccc1-c1cc(C(=O)NCc2cccc(C(F)(F)F)c2)nc2cc(-c3ccccc3)nn12	18	21
N#Cc1cccc(C(=O)N2CCC(n3cnc4ccccc43)CC2)c1	-3	-1
O=C(NS(=O)(=O)c1ccc(Cl)s1)c1sc2cc(Cl)ccc2c1Cl	1	-3
Cc1cc(C(C)(C)C)cc(C)c1NC(=O)CCl	-1&8	-2&7
O=C(NCc1nnc2n1CCC2)N1CCCC(N2CCCC2)C1 (stereo not given)	8	3
CCCCN1CCN(c2nc3c(c(=O)[nH]c(=O)n3C)n2Cc2ccc(Cl)c(Cl)c2)CC1	0	9
COc1cccc(CN(CC(O)COc2ccccc2)CC2CC(c3ccc(F)cc3)=NO2)c1 (stereo not given)	-2	0
COc1ccc(C(C)C)cc1S(=O)(=O)N1CCN(c2cccc(C)c2C)CC1	5	5
Cc1onc(-c2ccccc2Cl)c1C(=O)Nc1ccccc1Sc1ccccc1	-11	-13

Reformatted: 2 of the compounds above
> O=C(NCc1nnc2n1CCC2)N1CCCC(N2CCCC2)C1 (stereo not given)
  NPYLR7 agonist: 8 | NPYLR7 agonist max-min: 3

> CCCCN1CCN(c2nc3c(c(=O)[nH]c(=O)n3C)n2Cc2ccc(Cl)c(Cl)c2)CC1
  NPYLR7 agonist: 0 | NPYLR7 agonist max-min: 9
